PMP22 txn prim = PMP22 gene transcription modulation. S16 Pmp22-F2sN Schwann cells (luciferase reporters placed in the Pmp22 gene), FLuc/NLuc coincidence luminescence, 24 h. Potency, µM (doses to about 57.5 µM), without a hit: at the top dose activity change, negative = inhibition, most hits filed as inhibitors. 2% of 43,000 active; active = clear falling dose curves in both reporters; inconclusive = both reporters move, but less clearly or upward; inactive = either reporter flat; the % is the NLuc reporter signal; note: % is set by controls: 0 for no effect and ±100 for the full control effect; some results filed as inactive show a strong effect at the top dose
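Transcriptional readout in edited S16(c9) cells: two luciferases reported from the Pmp22 locus, measured in turn after 24 h compound incubation.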
HTT prom inh = inhibitors of huntingtin promoter activity | Potency, µM (highest dose often 57.5 µM), for the others: top-dose activity change, negative = inhibition, most hits filed as inhibitors | 0.93% of 48,000 active | HEK293 HTT promoter firefly luciferase reporter (activity 0% = vehicle and -100% = no light), 24 h | AID 1508623; active = well fitted inhibition curve with a large enough effect; inconclusive = small, poorly fitted or top-dose-only effect; inactive = no such curve, though single readings can be large or run the other way; note: nearly all actives have a fitted effect of over 50% in size
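HEK293 Fluc reporter, 2,500 cells/well, 24 h pre-culture; cpds up to 57.5 uM final, 24 h 37 degrees C; Dual-Glo, 10 min RT; normalized vehicle = 0%, zero RLU = -100%.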
Numbers without * were called inactive; ? = inconclusive; . = not tested or not shown; [ ] = dose if it differs, or a comment. Potency is the fitted concentration of half-maximal effect.

Start of the listing, in advance:
SMILES	PMP22 txn prim	HTT prom inh
COc1ccc(NC(=O)CCNS(=O)(=O)c2cccc3nsnc23)cc1	1%	-20%
CCOc1cc(C2c3c(oc4cc(C)cc(C)c4c3=O)C(=O)N2CCO)ccc1O (stereo not given)	-10%	-3%
COCCCNC(=O)CSc1nc2cc3c(cc2c(=O)n1CCCC(=O)NCc1ccc(OC)cc1)OCO3	13%	-13%
CCOc1ccc(NC(=O)C(NS(=O)(=O)c2ccc3c(c2)CCN3C(C)=O)C(C)C)cc1 (stereo not given)	-21%	-20%
O=C(COc1ccc(Cl)cc1)NCC(c1cccs1)S(=O)(=O)c1ccc(F)cc1 (stereo not given)	-20%	-29%
Cc1ccc(CNC(=O)c2ccc3c(c2)c(C)c(C)n3Cc2ccc(Cl)cc2)o1	-12%	?
Cc1ccc(OCC(=O)Nc2ccc(S(=O)(=O)Nc3cc(C)on3)cc2)c(Br)c1	0%	-26%[11.5 µM]
COc1ccccc1C(=O)Nc1cc(-c2ccc(C)cc2)no1	-17%	55%[activator]
COc1ccc(CNC(=O)C2(c3cccs3)CCOCC2)cc1	-15%	-3%
COc1ccc(C(C)n2c(C)c3c(C)nnc(C)c3c2C)cc1 (stereo not given)	?	?
Cc1ccc(Cl)cc1N1CCN(C(=O)c2ccc3c(c2)N(Cc2ccccc2F)C(=O)c2ccccc2S3(=O)=O)CC1	-38%	-11%
COc1cccc(-c2cc(C(=O)Nc3ccc(F)cc3)[nH]n2)c1	6%	2%
CN(C)c1ccc(CNC(=O)CN2C(=O)C3CCCCN3c3ccc(C(=O)N4CCCC4)cc32)cc1 (stereo not given)	-38%	-14%
Cc1ccc(NC(=O)N2CCN(c3nnc(C)c4c(C)n(-c5ccccc5)nc34)CC2)c(Cl)c1	-18%	-7%

This part in full, previewed entries included:
SMILES	PMP22 txn prim	HTT prom inh
COc1ccc(NC(=O)CCNS(=O)(=O)c2cccc3nsnc23)cc1	1%	-20%
CCOc1cc(C2c3c(oc4cc(C)cc(C)c4c3=O)C(=O)N2CCO)ccc1O (stereo not given)	-10%	-3%
COCCCNC(=O)CSc1nc2cc3c(cc2c(=O)n1CCCC(=O)NCc1ccc(OC)cc1)OCO3	13%	-13%
CCOc1ccc(NC(=O)C(NS(=O)(=O)c2ccc3c(c2)CCN3C(C)=O)C(C)C)cc1 (stereo not given)	-21%	-20%
O=C(COc1ccc(Cl)cc1)NCC(c1cccs1)S(=O)(=O)c1ccc(F)cc1 (stereo not given)	-20%	-29%
Cc1ccc(CNC(=O)c2ccc3c(c2)c(C)c(C)n3Cc2ccc(Cl)cc2)o1	-12%	?
Cc1ccc(OCC(=O)Nc2ccc(S(=O)(=O)Nc3cc(C)on3)cc2)c(Br)c1	0%	-26%[11.5 µM]
COc1ccccc1C(=O)Nc1cc(-c2ccc(C)cc2)no1	-17%	55%[activator]
COc1ccc(CNC(=O)C2(c3cccs3)CCOCC2)cc1	-15%	-3%
COc1ccc(C(C)n2c(C)c3c(C)nnc(C)c3c2C)cc1 (stereo not given)	?	?
Cc1ccc(Cl)cc1N1CCN(C(=O)c2ccc3c(c2)N(Cc2ccccc2F)C(=O)c2ccccc2S3(=O)=O)CC1	-38%	-11%
COc1cccc(-c2cc(C(=O)Nc3ccc(F)cc3)[nH]n2)c1	6%	2%
CN(C)c1ccc(CNC(=O)CN2C(=O)C3CCCCN3c3ccc(C(=O)N4CCCC4)cc32)cc1 (stereo not given)	-38%	-14%
Cc1ccc(NC(=O)N2CCN(c3nnc(C)c4c(C)n(-c5ccccc5)nc34)CC2)c(Cl)c1	-18%	-7%
CC(C)CCNC(=O)CSc1nc2ccccc2nc1Cc1ccc(Cl)cc1	2%	-2%
CCN(CC)C(=O)Cn1c(=O)n(Cc2ccc(C(=O)NCc3ccc(C)cc3)cc2)c(=O)c2ccccc21	-15%	-7%
Fc1ccc(-c2nnn3c2nc(NCc2ccccc2)c2ccccc23)cc1	-9%	-8%
CCOc1ccc(C(=O)c2cn(CC(=O)Nc3cccc(OC)c3)c3cc4c(cc3c2=O)OCCO4)cc1	-22%	-17%
Cc1cc(Nc2ccc(F)cc2)n2c(nc3ccccc32)c1C#N	?	-24%
COc1ccc(C)cc1NC(=O)c1cc(S(=O)(=O)N2CCc3ccccc3C2)ccc1F	-16%	?
Cc1cccc(-c2nc(CCNC(=O)c3ccccc3Br)cs2)c1	5%	?
CCOC(=O)CCc1c(C)nc2c(-c3ccccc3)c(C)[nH]n2c1=O	?	-11%
CCOc1ccccc1CNS(=O)(=O)c1cc(-c2onc(C)c2C)ccc1OC	?	-23%
Clc1ccc(Cn2c(CN3CCCC3)nc3ccccc32)cc1	.	-3%
CCOC(=O)c1ccc(N2C(=O)c3n[nH]c(-c4ccco4)c3C2c2cccc(F)c2)cc1 (stereo not given)	?	?
Cc1ccc(-c2cn3c(n2)sc2cc(C(=O)NCc4cccs4)ccc23)c(C)c1	-11%	4%
O=C(CCN1N=C(c2ccccc2)CCC1=O)NCCc1ccc(Cl)cc1	-1%	?
COc1ccccc1CCNC(=O)C1CCN(c2nc3ccccc3nc2C(F)(F)F)CC1	-17%	7%
COc1ccc(-c2c(C)nn3c(C(F)(F)F)cc(C)nc23)cc1OC	-25%	-22%
CC(C)(C)c1ccc(-c2nc(S(=O)(=O)c3ccccc3)c(N3CCOCC3)o2)cc1	?	-15%
COc1cc(NC(=O)CSc2nc(-c3ccco3)cc(C(F)(F)F)n2)cc(OC)c1OC	-113%	13µM*
COc1ccccc1C(=O)N1CCC(c2c[nH]c3ccccc23)(c2c[nH]c3ccccc23)CC1	20%	?
COc1ccccc1CCNC(=O)Cc1c(C)c2c(cc(C)c3c(C)coc32)oc1=O	-5%	-9%
Cc1ccc(NC(=O)C2CCC(CNS(=O)(=O)c3cccc4nsnc34)CC2)c(C)c1 (stereo not given)	-1%	-5%
Cc1ccccc1NC(=O)CC(NCc1cccnc1)C(=O)O (stereo not given)	-8%	-3%
Cc1ccc(CNC(=O)c2cc3c(s2)-c2ccc(Cl)cc2SC3)cc1	-18%	-12%
O=C(NCCn1cc(SCc2ccc(Cl)cc2)c2ccccc21)c1cccs1	?	?
COC(=O)c1ccccc1NC(=O)N1CCC(n2c(C)nc3cccnc32)CC1	-1%	0%
Cc1ccc(/C=C/C(=O)Nc2ccc3nc(N4CCC(C)CC4)cc(C)c3c2)cc1	-10%	-8%
COc1cccc(N2CC(NC(=O)Cc3cccs3)CC2=O)c1 (stereo not given)	9%	-12%
CC(C)(C)NCC(O)COc1cccc2c1CCC(=O)N2 (stereo not given)	.	9%
COc1cccc(/C=C/c2nc(C#N)c(N(C)Cc3ccccc3)o2)c1	-12%	-13%
COc1ccc(CNC(=O)c2ccc(NC(=O)N3CCSc4ncccc43)cc2)c(OC)c1	20%	?
COc1ccc(-c2ccc(NS(=O)(=O)c3cc(C)c(C)cc3C)cc2)nn1	26%	?
Cc1cccc(-c2cc(NC(=O)C(C)(C)C)n(-c3ccccc3)n2)c1	-76%	0%
CCC[C@H]1C[C@H](C(=O)N[C@@H]([C@@H]2O[C@@H](SC)[C@@H](O)[C@@H](O)[C@@H]2O)[C@H](C)Cl)N(C)C1	.	-6%
COc1ccccc1NC(=O)C1=C(C)Nc2nnnn2C1c1ccc(C(F)(F)F)cc1 (stereo not given)	15%	-17%
O=C(O)c1cc(-c2ccccc2)nn1Cc1ccccc1	1%	20%
CCC(=O)Nc1cc(-c2cn3cccnc3n2)ccc1OC	-88%	9%
COc1ccccc1N1CCN(C(CNC(=O)C(=O)NCCCN(C)C)c2cccnc2)CC1 (stereo not given)	-18%	-2%

The list continues.
SMILES	PMP22 txn prim	HTT prom inh
Cc1ccc2c(=O)cc(C(=O)Nc3sc4c(c3C(=O)NCC3CCCO3)CCCC4)oc2c1C (stereo not given)	-10%	-3%
Cc1oc2ccc(O)c(CN(C)Cc3ccccc3)c2c1C(=O)Nc1cccc(C(F)(F)F)c1	?	?
CCCCC(=O)O[C@]1(C(=O)CO)CC[C@H]2[C@@H]3CCC4=CC(=O)CC[C@]4(C)[C@H]3[C@@H](O)C[C@@]21C	.	-8%
Cc1ccc(C(=O)NCC(=O)OCc2cc(=O)n3c(C)csc3n2)cc1	30%	-2%
COc1ccc(OC)c(NC(=O)C(CCSC)NS(=O)(=O)c2cccs2)c1 (stereo not given)	-1%	8%
CCn1c(C(=O)NCc2ccc(F)cc2)cc2oc3ccccc3c21	-6%	?
Cc1cccc(C(=O)N2c3nc(-c4ccco4)nn3C3(CCCCC3)[C@@H]3CCCC[C@@H]32)c1	-27%	-32%
Cc1cccc(OCCCn2c(CCNC(=O)C3CCCCC3)nc3ccccc32)c1	?	?
O=C(c1ccc2c(c1)N(Cc1ccc(F)cc1)C(=O)c1ccccc1S2=O)N1CCOCC1 (stereo not given)	-8%	-16%
CCc1ccc(NC(=O)CSc2nnc(-c3cc4occc4n3C)n2-c2ccccc2C)cc1	12%	?
O=C(Nc1cccc(F)c1)[C@@H](c1ccccc1)N1Cc2ccccc2C1=O	-4%	-14%
CCCCCN1C(C(=O)c2ccccc2)=C(OC(=O)CC)c2ccccc2S1(=O)=O	?	?
CCC1CCCCN1S(=O)(=O)c1ccc(NC(=O)c2cc(=O)c3ccccc3o2)cc1 (stereo not given)	-19%	-34%
Cc1cc(=O)n(Cc2ccccc2)c2c1c(C)nn2C	-28%	-29%
CCN(Cc1ccccc1)C(=O)CCS(=O)(=O)c1ccc2c(c1)oc(=O)n2C	-10%	-22%
O=C(NCc1ccccc1)c1cccc(NC(=O)N2CCSc3ncccc32)c1	5%	?
Cc1n[nH]c(C)c1S(=O)(=O)N1CCCC(C(=O)Nc2ccc(Cl)cc2)C1 (stereo not given)	-8%	28µM*
CCN(CC)c1cc2c(cc1F)c(=O)c(S(=O)(=O)c1ccc(OC)cc1)cn2CC	-24%	-20%
CCOc1ccc(NC(=O)c2cnc3sc(N4CCOCC4)nn3c2=O)cc1	1%	1%
O=C(NCCc1ccc(Cl)cc1)C(=O)NCC(c1ccco1)S(=O)(=O)c1cccs1 (stereo not given)	?	?
O=C(c1ccccc1)N1c2ncnn2C2(CCCCC2)[C@@H]2CCCC[C@@H]21	-18%	-31%
CCc1ccccc1Nc1nc2ccccc2n2cnnc12	?	-29%
Cc1nc2ccccc2c(=O)n1-c1ccc(NC(=O)c2ccc([N+](=O)[O-])cc2)cc1	11%	-16%
CCOc1ccccc1NC(=O)C1CCN(S(=O)(=O)c2c(C)noc2/C=C/c2ccc(C)cc2)CC1	?	-8%
COC(=O)CC1Oc2ccccc2-n2cc(-c3ccccc3)nc21 (stereo not given)	24%	-21%
CC(C)CN(C[C@H](O)[C@H](Cc1ccccc1)NC(=O)O[C@H]1CCOC1)S(=O)(=O)c1ccc(N)cc1	.	-9%
CC(C)[N+](C)(CCOC(=O)C1c2ccccc2Oc2ccccc21)C(C)C	.	-6%
COc1ccc(C2CC(=O)Nc3c2c(=O)nc2c(C)cccn32)cc1 (stereo not given)	-25%	-10%
Cc1ccc(OCCCn2c(CCNC(=O)C3CCCCC3)nc3ccccc32)c(C)c1	-5%	1%
Cc1ccc(C)c(Nc2nnc(-n3nc(C)cc3C)c3ccccc23)c1	-5%	-26%
COc1cccc(C(c2sc3nc(-c4ccco4)nn3c2O)N2CCN(c3ccccc3F)CC2)c1 (stereo not given)	15%	-10%
Cc1ccc(Nc2cc(C)c(C#N)c3nc4ccccc4n23)c(C)c1	?	-13%
O=C(Cn1c(=O)nc(-c2ccccc2)c2ccccc21)NCc1ccccc1Cl	3%	9%
CCOC(=O)c1ccc(NC(=O)C(=O)NCc2ccco2)cc1	1%	5%[11.5 µM]
COc1ccc(S(=O)(=O)N(CCc2ccccc2)CC(=O)Nc2cccc(OC)c2)cc1	?	?
O=S(=O)(c1ccc(F)cc1)N(CC(O)Cn1c2ccccc2c2ccccc21)c1ccccc1 (stereo not given)	?	?
COc1cccc(NC(=O)C2CCC(CNS(=O)(=O)c3ccc4c(c3)CC(C)N4C(C)=O)CC2)c1 (stereo not given)	?	?
CC(C)OC(=O)/C(C#N)=C/c1ccc(-c2ccc(Cl)c(Cl)c2)o1	1%	-14%[11.5 µM]
Cc1ccc(C(=O)NCC(c2cccs2)S(=O)(=O)c2ccccc2)cc1C (stereo not given)	-15%	-19%
Cc1cccc(NC(=O)Nc2ccc(F)cc2)n1	-7%	17%
CC(=O)N1CCc2c(sc3c2c(=O)n(-c2ccccc2)c(=O)n3CC(=O)c2ccc(F)cc2)C1	-10%	8%
Cc1ccc2c(=O)cc(C(=O)Nc3ccc(S(=O)(=O)N(C)Cc4ccccc4)cc3)oc2c1	-26%	-4%
Cc1ccccc1Cn1cc(NC(=O)c2cc(-c3ccc(Cl)cc3)on2)cn1	-17%	-2%
Cc1ccc(C)c(N2CCN(S(=O)(=O)c3ccc(C(=O)N(C)C)s3)CC2)c1	?	?
COc1ccc(-c2noc(CC(=O)Nc3cc(OC)ccc3OC)n2)cc1	-26%	-25%
O=S(=O)(NCCc1nnc2ccc(SCc3ccc(C(F)(F)F)cc3)nn12)c1ccccc1	?	-21%
O=C(Nc1cccc(C(=O)N2CCN(c3ccc(Cl)cc3)CC2)c1)c1nsc2ccccc12	?	?
Cc1ccc(C)c(NC(=O)Cn2nnc(C(=O)NCc3ccco3)c2N)c1	10µM*	?
Cc1ccc(NC(=O)c2oc3ccccc3c2NC(=O)C23CC4CC(CC(C4)C2)C3)cc1	11%	-12%

Assay outcomes: PubChem BioAssay, National Center for Advancing Translational Sciences (NCATS)
